# Bioassay records (PubChem)
# DUX4 txn inh = blocks DUX4-driven transcriptional activation | 293T-iDUX4 ZSCAN4-Gaussia luciferase reporter, 24 h; stronger effect = lower value | activity change, negative = inhibition, % (concentration not given with the values) | hit rate 0.8% among 37,000 | AID 1224904;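 active = -10% or lower and over 25 points stronger than a control reporter; inconclusive = -10% or lower with a smaller gap; inactive = above -10%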;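 also: 0% = median of neutral control wells and -100% = median of positive control wells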
# DUX4 txn inh difference = recorded beside DUX4 txn inh, whose call it bears; Gaussia minus Italica difference, %; measured here: selective DUX4 reporter inhibition;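 worked out from the two reporters; negative = selective loss of the DUX4 reporter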
# DUX4 txn inh control = also measured in DUX4 txn inh; calls as there; activity change, negative = inhibition, %; measured here: Italica tet-on control reporter;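 0 = neutral control and -100 = positive control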
# Numbers without * were called inactive; u = inconclusive; x = not tested or not shown. Only part of the results is shown; rates above refer to the full screens.
DUX4 txn inh,DUX4 txn inh difference,DUX4 txn inh control,smiles
1,1,-0.9,CN(C)CCCNC(=O)C[C@@H]1CC[C@H]2[C@H](COc3ccc(NC(=O)c4ccccc4F)cc3C(=O)N2C)O1
-5,0,-5.2,O=C(c1ccccn1)N1C[C@@H]2[C@H](c3ccccc31)[C@@H](CO)N2C(=O)C1CCCCC1
12,-2,14,OC[C@@H]1[C@H](c2ccc(-c3cccnc3)cc2)[C@H]2CN(CC3CC3)CCCCN12
5,4,0.3,Cn1cnc(CCNC(=O)C[C@H]2CC[C@@H]3[C@H](COC[C@@H](O)CN3C(=O)C3CCCC3)O2)c1
4,4,-0.4,C[C@H](CO)N1C[C@H](C)[C@@H](CN(C)S(=O)(=O)c2ccc(F)cc2)Oc2ccc(NC(=O)C3CCCCC3)cc2CC1=O
12,8,4.2,CCCNC(=O)N1CC2(C1)CN(C(=O)c1ccccc1)[C@@H](CO)c1[nH]c3cc(OC)ccc3c12
2,3,-0.8,C[C@H](NC(=O)[C@@H]1[C@@H](CO)[C@@H]2Cn3c(cccc3=O)[C@H]1N2Cc1ccccc1)c1ccccc1
2,-1,2.9,N#C[C@H]1[C@@H](c2ccc(-c3cccc(F)c3)cc2)[C@H](CO)N1C(=O)NC1CCCC1
0,1,-1.4,O=C(Nc1cccc(F)c1)N1C[C@H]2[C@@H](c3ccccc31)[C@@H](CO)N2C(=O)Cc1ccccn1
-2,-2,0.4,CO[C@H]1CN(C)C(=O)c2cccc(C#N)c2OC[C@H]2O[C@@H](CC[C@H]2OC)CCN(C)C(=O)[C@H]1C

# Some values from the list:
# For DUX4 txn inh, CN(C)CCCNC(=O)C[C@@H]1CC[C@H]2[C@H](COc3ccc(NC(=O)c4ccccc4F)cc3C(=O)N2C)O1 has 1
# For DUX4 txn inh control, C[C@H](NC(=O)[C@@H]1[C@@H](CO)[C@@H]2Cn3c(cccc3=O)[C@H]1N2Cc1ccccc1)c1ccccc1 has -0.8
# For DUX4 txn inh, O=C(Nc1cccc(F)c1)N1C[C@H]2[C@@H](c3ccccc31)[C@@H](CO)N2C(=O)Cc1ccccn1 has 0

# Going on with the list:
DUX4 txn inh,DUX4 txn inh difference,DUX4 txn inh control,smiles
5,-2,7.4,CN1CCN(C(=O)C[C@H]2CC[C@H]3[C@@H](COC[C@H](O)CN3C(=O)C3CCOCC3)O2)CC1
3,2,1.2,O=S(=O)(NC[C@@H]1N[C@@H](CO)[C@@H]1c1ccccc1)c1ccccc1
2,1,1.6,CC(=O)N1[C@H](CO)[C@@H](c2ccccc2)[C@H]1CN(C(=O)c1ccccc1)C(C)C
3,9,-5.6,CCS(=O)(=O)N1CC2(CN(C(=O)c3ccc(F)cc3)[C@@H](CO)c3c2c2ccc(OC)cc2n3C)C1
u,x,x,Cc1cccc(-c2ccc([C@H]3[C@H]4CN(C(=O)c5ccc6c(c5)OCO6)CC(=O)N4[C@H]3CO)cc2)c1
-6,-6,-0.6,CNC(=O)C[C@@H]1CC[C@H]2[C@@H](COc3ccc(NC(=O)c4cccc(OC)c4)cc3C(=O)N2C)O1
7,1,6.8,O=C(C[C@@H]1CC[C@H]2[C@@H](COC[C@@H](O)CN2S(=O)(=O)c2ccccc2)O1)NCCN1CCCC1
0,-1,0.7,COc1cccc(-c2ccc([C@@H]3[C@H](CO)N(C(=O)C4CC4)C34CN(C(C)=O)C4)cc2)c1
15,13,2.0,O=C(O)C[C@@H]1C[C@H]2c3cc(NC(=O)CC4CC4)ccc3O[C@H]2[C@H](CO)O1
-3,5,-7.2,O=C(Nc1cc(F)ccc1F)N1C[C@@H]2[C@H](c3ccccc31)[C@H](CO)N2Cc1ccncc1

# Reprinted from the part before: 4 entries, then new ones.
DUX4 txn inh,DUX4 txn inh difference,DUX4 txn inh control,smiles
7,1,6.8,O=C(C[C@@H]1CC[C@H]2[C@@H](COC[C@@H](O)CN2S(=O)(=O)c2ccccc2)O1)NCCN1CCCC1
0,-1,0.7,COc1cccc(-c2ccc([C@@H]3[C@H](CO)N(C(=O)C4CC4)C34CN(C(C)=O)C4)cc2)c1
15,13,2.0,O=C(O)C[C@@H]1C[C@H]2c3cc(NC(=O)CC4CC4)ccc3O[C@H]2[C@H](CO)O1
-3,5,-7.2,O=C(Nc1cc(F)ccc1F)N1C[C@@H]2[C@H](c3ccccc31)[C@H](CO)N2Cc1ccncc1
2,6,-3.5,CO[C@@H]1CN(C)C(=O)c2ccc(NC(C)=O)cc2OC[C@H](C)N(Cc2cccnc2)C[C@H]1C
u,x,x,O=C(Nc1cc(F)ccc1F)N1CCCCN2[C@H](CO)[C@H](c3ccc(C4=CCCCC4)cc3)[C@@H]2C1
-3,-1,-1.7,CO[C@@H]1CN(C)C(=O)c2cc(NC(=O)C3CC3)ccc2OC[C@@H](C)N(CC2CC2)C[C@@H]1C
0,0,-0.7,CCC(=O)NC[C@H]1[C@@H](c2ccc(C3=CCCC3)cc2)[C@@H](CO)N1CC1CC1
0,-2,2.0,C[C@@H]1CCCCO[C@H](CN(C)C(=O)C2CCCCC2)[C@H](C)CN([C@H](C)CO)C(=O)c2cc(N(C)C)ccc2O1
-4,-1,-3.1,CC(=O)N1[C@H](CO)[C@H](c2ccccc2)[C@@H]1CN(C(=O)c1ccccc1)C(C)C
u,x,x,COc1cccc(S(=O)(=O)N(C)C[C@H]2OCc3ccccc3-c3c(n(C)c4ccccc34)C(=O)N([C@H](C)CO)C[C@@H]2C)c1
1,-4,4.7,COc1cccc(C(=O)Nc2ccc3c(c2)C(=O)N(C)[C@@H]2CC[C@@H](CC(=O)N[C@H](C)c4ccccc4)O[C@@H]2CO3)c1
1,4,-3.1,C[C@H]1CN([C@@H](C)CO)C(=O)CCCn2cc(nn2)CO[C@@H]1CN(C)C(=O)Nc1ccc(-c2cccs2)cc1
2,2,0.2,C[C@H]1CN([C@@H](C)CO)C(=O)c2ccccc2-c2ccccc2CO[C@@H]1CN(C)S(=O)(=O)c1cn(C)cn1

# 4 compounds already listed, ordered by the number in DUX4 txn inh control, high to low:
DUX4 txn inh,DUX4 txn inh difference,DUX4 txn inh control,smiles
2,2,0.2,C[C@H]1CN([C@@H](C)CO)C(=O)c2ccccc2-c2ccccc2CO[C@@H]1CN(C)S(=O)(=O)c1cn(C)cn1
-3,-1,-1.7,CO[C@@H]1CN(C)C(=O)c2cc(NC(=O)C3CC3)ccc2OC[C@@H](C)N(CC2CC2)C[C@@H]1C
1,4,-3.1,C[C@H]1CN([C@@H](C)CO)C(=O)CCCn2cc(nn2)CO[C@@H]1CN(C)C(=O)Nc1ccc(-c2cccs2)cc1
2,6,-3.5,CO[C@@H]1CN(C)C(=O)c2ccc(NC(C)=O)cc2OC[C@H](C)N(Cc2cccnc2)C[C@H]1C

# More records:
DUX4 txn inh,DUX4 txn inh difference,DUX4 txn inh control,smiles
-1,0,-1.0,CN1C(=O)c2cc(NC(=O)Cc3cccs3)ccc2OC[C@H]2O[C@@H](CC(=O)N[C@@H]3CCN(Cc4ccccc4)C3)CC[C@@H]21
-3,-5,2.2,C[C@@H](NC(=O)C[C@H]1CC[C@@H]2[C@H](COC[C@H](O)CN2Cc2ccc(C(F)(F)F)cc2)O1)c1ccccc1
5,-2,7.5,C[C@H](NC(=O)C[C@@H]1CC[C@@H]2[C@H](COC[C@H](O)CN2C(=O)Nc2cccc(Cl)c2)O1)c1ccccc1
u,x,x,COc1ccc2c3c([nH]c2c1)[C@@H](CO)N(Cc1ccccc1)CC31CCN(Cc2cncnc2)CC1
u,x,x,CCC(=O)N1[C@H](CO)[C@@H](c2ccc(/C=C/c3ccccc3)cc2)C12CN(S(C)(=O)=O)C2
8,1,6.7,CN(C)C(=O)c1ccc(-c2ccccc2[C@H]2[C@@H](CO)N(C(=O)C3CCCCC3)[C@H]2C#N)cc1
u,x,x,O=C(C[C@H]1CC[C@@H]2[C@H](COC[C@@H](O)CN2Cc2cc(F)cc(F)c2)O1)Nc1nccs1
13,8,4.8,OC[C@@H]1[C@@H](c2ccccc2)C2(CN(Cc3cccnc3)C2)N1Cc1ccncc1
4,7,-3.0,CN1[C@@H]2Cn3c(ccc(-c4cccc(F)c4)c3=O)[C@H]1[C@@H](C(=O)Nc1nccs1)[C@@H]2CO
u,x,x,O=S(=O)(c1cccc(F)c1)N1CC[C@@H]2[C@H]1c1cc(C#Cc3cccc(F)c3)ccc1N[C@@H]2CO
0,-1,0.8,C[C@@H]1CN([C@H](C)CO)C(=O)c2cccc(NS(=O)(=O)c3ccc(Cl)cc3)c2O[C@H]1CN(C)C(=O)Nc1ccc2c(c1)OCO2
-1,-2,1.0,OC[C@@H]1[C@H](c2ccc(-c3ccc(F)cc3)cc2)[C@@H]2CN(Cc3cccnc3)CCCCN12
4,6,-1.6,C[C@@H]1CN([C@@H](C)CO)C(=O)c2cccc(NS(=O)(=O)c3ccccc3)c2O[C@H]1CN(C)Cc1ccc(C(=O)O)cc1
1,2,-1.3,C[C@H]1CN([C@@H](C)CO)C(=O)Cc2cc(NC(=O)C3CCCCC3)ccc2O[C@H]1CN(C)Cc1ccc(C(=O)Nc2ccccc2N)cc1
-4,-1,-2.9,CCCNC(=O)C[C@@H]1C[C@H]2c3cc(NC(=O)Nc4ccc(F)cc4)ccc3O[C@H]2[C@H](CO)O1
-1,-4,2.6,CCC(=O)N(C)C[C@H]1[C@H](c2ccc(C3=CCCCC3)cc2)[C@@H](CO)N1C(=O)CC
-1,0,-0.8,CO[C@H]1CN(C)C(=O)c2cc(NS(=O)(=O)CC(F)(F)F)ccc2OC[C@H](C)N(Cc2ccccn2)C[C@H]1C
0,-1,1.5,CC(=O)N(CC(C)C)C[C@@H]1[C@H](c2ccc(C3=CCCC3)cc2)[C@H](CO)N1C(C)=O
3,5,-2.0,CCN1[C@@H]2c3ccc(-c4ccc(OC)cc4)c(=O)n3C[C@@H]2[C@@H](CO)[C@@H]1C(=O)N(C)C
1,3,-2.1,CC(C)[C@H]1COCc2cnnn2CCC[C@@H](C)C(=O)N1
3,-2,5.1,CCCNC(=O)N1C[C@@H]2[C@H](c3ccccc31)[C@H](CO)N2C(=O)NCCC
-5,0,-4.6,COC(=O)[C@H]1[C@H](CO)[C@H]2Cn3c(ccc(-c4cccc(OC)c4)c3=O)[C@H]2N1Cc1nccs1
-4,-7,2.8,CO[C@@H]1CN(C)C(=O)c2cc(NS(=O)(=O)CC(F)(F)F)ccc2OC[C@@H](C)N(Cc2ccccn2)C[C@H]1C
7,2,5.5,CC(=O)N1[C@H](CO)[C@@H](c2ccc(C3=CCCC3)cc2)C12CN(C(=O)C1CC1)C2
22,7,14,O=S(=O)(c1ccccc1F)N1CCCCN2[C@H](CO)[C@H](c3ccc(-c4cncnc4)cc3)[C@@H]2C1
2,-4,5.8,CO[C@@H]1CN(C)C(=O)c2cc(NS(=O)(=O)CC(F)(F)F)ccc2OC[C@H](C)N(Cc2ccccn2)C[C@H]1C
-2,-4,2.2,Cc1ccccc1S(=O)(=O)N1[C@@H](C#N)[C@@H](c2ccc(-c3ccc(F)cc3)cc2)[C@@H]1CO
6,1,5.4,N#C[C@@H]1[C@@H](c2ccc(-c3cccc(F)c3)cc2)[C@H](CO)N1C(=O)NC1CCCC1
u,x,x,CC(C)[C@H](C)NC(=O)N(C)C[C@@H]1OCc2ccccc2-c2c(n(C)c3ccccc23)C(=O)N([C@H](C)CO)C[C@@H]1C
-3,2,-5.4,CO[C@@H]1CC[C@@H]2CCN(C)C(=O)CCCN(C)C(=O)c3cccc(C#N)c3OC[C@@H]1O2
-1,0,-1.0,C[C@@H]1CN([C@@H](C)CO)S(=O)(=O)c2ccc(-c3cncnc3)cc2O[C@@H]1CN(C)C(=O)c1cccc(F)c1
2,2,0.4,CCCNC(=O)N1C[C@@H](C)[C@@H](OC)CN(C)C(=O)c2cc(NC(C)=O)ccc2OC[C@H]1C
-3,-8,5.0,COc1cccc(NC(=O)C[C@H]2CC[C@H]3[C@H](COc4ccc(NC(=O)C5CC5)cc4C(=O)N3C)O2)c1
5,1,3.4,COc1ccc(NC(=O)N(C)C[C@@H]2OCc3ccccc3-c3ccccc3C(=O)N([C@H](C)CO)C[C@H]2C)c(OC)c1
-8,-8,0.2,CC(C)NC(=O)N[C@H]1C=C[C@@H](CC(=O)NCc2ccc(Oc3ccccc3)cc2)O[C@@H]1CO
2,-2,3.7,C[C@H](CO)N1C[C@H](C)[C@H](CN(C)C(=O)Cc2cccnc2)Oc2cc(C#Cc3ccccc3F)ccc2S1(=O)=O
7,4,3.9,C[C@@H]1CN([C@@H](C)CO)C(=O)CCCn2nncc2CO[C@@H]1CN(C)C(=O)Nc1ccccc1F
3,3,-0.1,CCNC(=O)[C@H]1[C@H](CO)[C@H]2Cn3c(ccc(-c4ccncc4)c3=O)[C@H]2N1Cc1cc(F)ccc1F
-2,-9,6.9,C[C@H]1CN([C@@H](C)CO)C(=O)c2c(c3ccccc3n2C)-c2ccccc2CO[C@@H]1CN(C)C(=O)Nc1ccc2c(c1)OCO2
0,0,-0.7,C[C@@H]1CN([C@H](C)CO)C(=O)CCCn2nncc2CO[C@@H]1CN(C)S(=O)(=O)c1ccc(F)cc1
3,-1,4.8,COc1ccc(S(=O)(=O)N(C)C[C@@H]2Oc3ccc(NC(=O)NC4CCCCC4)cc3CC(=O)N([C@H](C)CO)C[C@@H]2C)cc1
u,x,x,Cc1cccc(-c2ccc([C@H]3[C@@H](CO)N4CCCCN(C(=O)NC(C)C)C[C@@H]34)cc2)c1
0,-1,1.2,O=C(C[C@H]1C=C[C@H](NC(=O)CC2CC2)[C@@H](CO)O1)NCC(F)(F)F
u,x,x,CN1c2ccc(-c3ccc(F)cc3)cc2[C@@H]2[C@@H](CCN2C(=O)Nc2ccc(F)cc2)[C@@H]1CO
-4,-4,-0.5,O=C(NC[C@H]1[C@H](c2ccccc2)[C@H](CO)N1Cc1ccccn1)C1CCCC1
-3,-3,0.1,Cc1ccc(S(=O)(=O)N(C)C[C@H]2OCCCC[C@@H](C)Oc3ccc(NC(=O)C4CCCCC4)cc3C(=O)N([C@@H](C)CO)C[C@H]2C)cc1
